# Screening data (PubChem)
# MLL AF4-AF9 inh: inhibitors of AF4 peptide binding to AF9, primary screen, biochemical, AlphaScreen, biotin-AF4 peptide, FLAG-AF9, single point; hit rate 0.47% among 350,000; inhibition, % at 10 µM; AID 651704, 2012; Protein AF-9 (Homo sapiens), P42568;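 active means every replicate reaching a set inhibition limit, whatever the replicate mean, cut at about 25% in these data; inconclusive means mean inhibition reaches that limit but some replicates miss it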;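 further: 0% = plate neutral control median and 100% = total signal loss; the record names both 10 and 1 µM as test concentration; the first replicate is given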
# Target sequence (P42568 whole entry, looked up): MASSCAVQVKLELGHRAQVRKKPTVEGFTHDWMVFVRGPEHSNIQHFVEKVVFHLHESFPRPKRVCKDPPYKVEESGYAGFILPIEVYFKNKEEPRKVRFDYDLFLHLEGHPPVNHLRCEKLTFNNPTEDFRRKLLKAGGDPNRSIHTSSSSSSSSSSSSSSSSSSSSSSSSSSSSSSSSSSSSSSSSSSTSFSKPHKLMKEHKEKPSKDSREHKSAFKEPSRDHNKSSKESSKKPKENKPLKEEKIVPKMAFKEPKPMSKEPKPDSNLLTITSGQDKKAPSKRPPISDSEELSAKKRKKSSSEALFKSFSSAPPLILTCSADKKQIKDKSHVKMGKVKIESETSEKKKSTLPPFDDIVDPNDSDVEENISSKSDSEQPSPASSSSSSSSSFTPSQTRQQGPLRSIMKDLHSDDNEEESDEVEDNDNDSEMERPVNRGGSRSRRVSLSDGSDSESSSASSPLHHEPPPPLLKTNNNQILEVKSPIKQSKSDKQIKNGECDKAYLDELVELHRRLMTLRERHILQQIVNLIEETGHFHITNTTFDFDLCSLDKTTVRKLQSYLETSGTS
# * marks the source's active call; other numbers are inactive results; ? = inconclusive; & = joins results of further samples.
No. | MLL AF4-AF9 inh | Compound
1 | 0.1 | O=C(C[C@H]1CC[C@H]2[C@@H](COC[C@@H](O)CN2Cc2nccs2)O1)N1CCC(Cc2ccccc2)CC1
2 | -1.3 | CCNC(=O)C[C@@H]1CC[C@H]2[C@@H](COc3ccc(NC(C)=O)cc3C(=O)N2C)O1
3 | 5.7 | COc1ccc(NC(=O)Nc2ccc3c(c2)C(=O)N([C@@H](C)CO)C[C@H](C)[C@H](CN(C)Cc2ccncc2)OCCCC[C@@H](C)O3)cc1
4 | 2.2 | COCCNC(=O)C[C@@H]1C[C@@H]2c3cc(NC(=O)Nc4ccc(C(F)(F)F)cc4)ccc3O[C@@H]2[C@@H](CO)O1
5 | 6.2 | C[C@H](CO)N1C[C@H](C)[C@@H](CN(C)C(=O)C2CCCCC2)OCCCC[C@H](C)Oc2ccc(NC(=O)Nc3ccc(F)cc3)cc2C1=O
6 | 3.7 | CN(C)CCCNC(=O)C[C@H]1CC[C@H]2[C@@H](COc3ccc(NC(=O)c4ccc5c(c4)OCO5)cc3C(=O)N2C)O1
7 | -1.2 | O=C(C[C@@H]1C=C[C@H](NC(=O)Nc2cc(F)ccc2F)[C@H](CO)O1)NCc1ccccn1
8 | -16 | C[C@H](CO)N1C[C@H](C)[C@H](CN(C)S(=O)(=O)c2cn(C)cn2)Oc2c(NS(=O)(=O)c3ccccc3)cccc2C1=O
9 | -3.7 | CCS(=O)(=O)NCC[C@@H]1CC[C@H](NS(=O)(=O)c2cccc(Cl)c2)[C@H](CO)O1
10 | -6.2 | C/C=C/c1cnc2c(c1)C(=O)N([C@H](C)CO)C[C@H](C)[C@@H](CN(C)Cc1ccncc1)O2
11 | -1.6 | C[C@@H]1CN([C@H](C)CO)C(=O)c2cc(Br)cnc2O[C@H]1CN(C)C(=O)C1CCCCC1
12 | -1.0 | CCC(=O)N1[C@@H]2c3ccc(-c4ccccc4F)c(=O)n3C[C@H]1[C@H](CO)[C@H]2C(=O)NC1CCCC1
13 | 1.5 | C[C@@H]1CN([C@H](C)CO)C(=O)Cc2cc(NC(=O)Nc3ccc(F)cc3)ccc2O[C@@H]1CN(C)C(=O)Nc1ccccc1
14 | 1.1 | COc1cccc(-c2ccc3n(c2=O)C[C@@H]2[C@@H](CO)[C@H](C(=O)N(C)C)N(CC4CC4)[C@H]32)c1
15 | -0.4 | C[C@H]1CN([C@@H](C)CO)C(=O)Cc2cc(NS(=O)(=O)c3ccccc3)ccc2O[C@@H]1CN(C)C(=O)Nc1ccc(F)cc1
16 | 1.7 | CCS(=O)(=O)Nc1ccc2c(c1)C(=O)N(C)C[C@@H](OC)[C@@H](C)CN(C(C)=O)[C@H](C)CO2
17 | 1.0 | COc1ccc(NC(=O)N(C)C[C@H]2Oc3ccc(NS(=O)(=O)c4ccc(Cl)cc4)cc3CC(=O)N([C@H](C)CO)C[C@@H]2C)cc1
18 | 0.7 | CN(C)CC(=O)N1[C@H](C(=O)Nc2nccs2)[C@@H](CO)[C@@H]2Cn3c(ccc(C4=CCCCC4)c3=O)[C@@H]21
19 | -1.9 | CO[C@@H]1CN(C)C(=O)c2ccc(NC(=O)C3CC3)cc2OC[C@@H](C)N(C(=O)c2cnccn2)C[C@H]1C
20 | 0.8 | CCCNC(=O)N[C@@H]1C=C[C@H](CC(=O)NCCc2ccccc2)O[C@H]1CO
21 | -1.0 | COc1cccc(CNc2nc3cc(-c4csc5ccccc45)sc3c(=O)n2C)c1
22 | -3.8 | COc1ccc(-c2ccc3c(n2)CCCN3S(=O)(=O)c2cccs2)cc1
23 | 2.4 | CC(=O)N1CC[C@@H]2[C@@H](CO)Nc3ccc(-c4ccccc4)cc3[C@@H]21
24 | 1.6 | CCCN1C[C@@H](C)[C@H](OC)CN(C)C(=O)c2cc(NC(=O)Nc3c(C)noc3C)ccc2OC[C@H]1C
25 | -0.4 | C[C@H]1CN([C@@H](C)CO)C(=O)c2cc(NS(=O)(=O)c3ccc(Cl)cc3)ccc2O[C@H]1CN(C)C(=O)Nc1ccc(F)cc1
26 | -4.7 | CC(C)NC(=O)N(C)C[C@@H]1Oc2ccc(NC(=O)CCC(F)(F)F)cc2C(=O)N([C@H](C)CO)C[C@H]1C
27 | -0.5 | O=C(Nc1cccc(F)c1)N1CCCCN2[C@H](CO)[C@@H](c3ccc(-c4ccncc4)cc3)[C@@H]2C1
28 | -0.1 | C[C@@H]1CN([C@@H](C)CO)C(=O)c2cc(NC(=O)Nc3ccc4c(c3)OCO4)ccc2O[C@@H]1CN(C)S(=O)(=O)c1cn(C)cn1
29 | -1.4 | CO[C@@H]1CN(C)C(=O)c2ccc(NS(C)(=O)=O)cc2OC[C@H](C)N(C(=O)C2CCCCC2)C[C@H]1C
30 | -0.3 | CN(C)C(=O)C[C@@H]1C[C@H]2c3cc(NS(C)(=O)=O)ccc3O[C@H]2[C@@H](CO)O1
31 | 3.1 | COc1cccc(NC(=O)N[C@@H]2CC[C@@H](CC(=O)NCc3ccncn3)O[C@@H]2CO)c1
32 | 3.0 | O=C(NCc1cccnc1)c1cc(C2CCCCN2S(=O)(=O)c2cccs2)on1 (centres undefined)
33 | -2.9 | C[C@H]1CCCCO[C@H](CN(C)C)[C@@H](C)CN([C@@H](C)CO)C(=O)c2cc(NS(=O)(=O)c3ccccc3)ccc2O1
34 | 15 | COc1ccc2c3c([nH]c2c1)[C@H](CO)N(C(=O)CN(C)C)CC31CN(CC2CCCC2)C1
35 | 1.2 | CCc1nc2ccc(C(=O)NCCCN3CCCC3=O)cn2c1N(CC)CCOC
36 | 1.1 | O=C(Nc1ccc(F)c(Cl)c1)C1Cc2c(-c3ccccc3Oc3ccccc3)ccnc2O1 (centres undefined)
37 | -1.9 | COCC(=O)N1CCCCN2[C@@H](CO)[C@@H](c3ccc(-c4ccc(OC)cc4)cc3)[C@@H]2C1
38 | -0.9 | COCC(=O)Nc1ccc2c(c1)C(=O)N(C)[C@@H]1CC[C@H](CC(=O)NCC(F)(F)F)O[C@@H]1CO2
39 | 0.5 | Cc1noc(C)c1NC(=O)Nc1ccc2c(c1)C(=O)N([C@H](C)CO)C[C@H](C)[C@H](CN(C)Cc1ccc(C(=O)Nc3ccccc3N)cc1)O2
40 | -2.0 | C[C@@H]1CN([C@@H](C)CO)C(=O)Cc2cc(NS(=O)(=O)c3ccc(F)cc3)ccc2O[C@@H]1CN(C)S(=O)(=O)c1ccccc1
41 | 13 | C[C@@H]1CCCCO[C@H](CN(C)Cc2ccc3c(c2)OCO3)[C@H](C)CN([C@H](C)CO)C(=O)c2cc(NC(=O)NC3CCCCC3)ccc2O1
42 | -1.6 | CCCC(=O)N1CC2(C1)CN(C(=O)CC1CC1)[C@H](CO)c1c2c2ccc(OC)cc2n1C
43 | -0.4 | CC=Cc1ccc2n(c1=O)C[C@@H]1[C@@H](CO)[C@H](C(=O)NCCC)[C@H]2N1C(=O)Nc1cc(F)ccc1F (mixture of isomers)
44 | -2.7 | CN(C)C(=O)[C@@H]1[C@@H](CO)[C@@H]2Cn3c(ccc(-c4ccccc4)c3=O)[C@@H]2N1Cc1ccccc1
45 | -0.3 | Cc1noc(C)c1NC(=O)N(C)C[C@@H]1OCCCC[C@H](C)Oc2ccc(NS(=O)(=O)c3ccc(F)cc3)cc2C(=O)N([C@@H](C)CO)C[C@@H]1C
46 | 1.5 | CCCOc1ccc(C(=O)CCC(=O)OCC(=O)N(CC)c2c(N)n(Cc3ccccc3)c(=O)[nH]c2=O)cc1
47 | -1.8 | C[C@H]1CCCCO[C@@H](CN(C)C(=O)C2CCCCC2)[C@@H](C)CN([C@@H](C)CO)C(=O)c2cc(NS(=O)(=O)c3cn(C)cn3)ccc2O1
48 | ? | CN1C(=O)c2cc(NC(=O)c3ccc(C(F)(F)F)cc3)ccc2OC[C@@H]2O[C@H](CC(=O)NC3Cc4ccccc4C3)CC[C@H]21
49 | -2.8 | O=C(O)C[C@H]1C=C[C@@H](NC(=O)Nc2ccccc2)[C@@H](CO)O1
50 | -0.2 | O=C(C[C@H]1C[C@@H]2c3cc(NS(=O)(=O)c4ccc(F)cc4)ccc3O[C@@H]2[C@@H](CO)O1)N1CCCCC1
51 | -3.8 | C/C=C/c1ccc2c(c1)O[C@@H](CN(C)C(=O)c1ccncc1)[C@H](C)CN([C@@H](C)CO)S2(=O)=O
52 | 1.8 | O=C(C[C@@H]1CC[C@H]2[C@@H](COC[C@H](O)CN2Cc2ccc(Cl)cc2)O1)NCc1cccc(F)c1
53 | 1.3 | COc1cccc(C#Cc2ccc([C@@H]3[C@H](C#N)N(C(=O)c4ccccn4)[C@H]3CO)cc2)c1
54 | -2.1 | Cc1ccc(S(=O)(=O)NCC[C@@H]2CC[C@H](NC(=O)c3cccnc3)[C@@H](CO)O2)cc1
55 | 0.0 | Cc1noc(C)c1NC(=O)Nc1ccc2c(c1)C(=O)N([C@@H](C)CO)C[C@H](C)[C@H](CN(C)C(=O)NC1CCCCC1)OCCCC[C@@H](C)O2
56 | -1.4 | CCNC(=O)C[C@@H]1CC[C@H]2[C@@H](COc3ccc(NC(=O)C4CCOCC4)cc3C(=O)N2C)O1

# (next part)
No. | MLL AF4-AF9 inh | Compound
57 | -0.9 | O=C(C[C@H]1C[C@@H]2c3cc(NC(=O)Cc4ccncc4)ccc3O[C@@H]2[C@H](CO)O1)NCc1ccc(-c2ccccc2)cc1
58 | 0.4 | CC(C)NC(=O)N[C@@H]1CC[C@H](CCNS(=O)(=O)c2ccc(Cl)cc2)O[C@@H]1CO
59 | -0.7 | CCCN1[C@H](C(=O)N(C)C)[C@@H](CO)[C@@H]2Cn3c(ccc(-c4cccc(F)c4)c3=O)[C@@H]21
60 | -1.0&-0.5&2.1 | C[C@@H]1CN([C@@H](C)CO)S(=O)(=O)c2ccc(-c3cccc(C#N)c3)cc2O[C@@H]1CN(C)C(=O)c1ccc(F)cc1
61 | -0.7 | N#C[C@@H]1[C@@H](c2ccc(-c3cccc(F)c3)cc2)[C@@H](CO)N1C(=O)NC1CCCC1
62 | -3.3 | COCCNC(=O)C1CCCN(Cc2ccc(Cl)cc2)CC1 (centres undefined)
63 | -4.3 | C[C@@H](NC(=O)[C@@H]1[C@@H](CO)[C@@H]2Cn3c(ccc(-c4ccncc4)c3=O)[C@H]1N2C)c1ccccc1
64 | 1.1 | COc1ccc(S(=O)(=O)N[C@H]2C=C[C@@H](CC(=O)N3CCC(Cc4ccccc4)CC3)O[C@H]2CO)cc1
65 | 10 | CCC(=O)N1CC[C@@H]2[C@H]1c1cc(-c3ccc(F)cc3)ccc1N(C)[C@H]2CO
66 | -4.9 | COCC(=O)Nc1ccc2c(c1)OC[C@H](C)NC[C@H](C)[C@@H](OC)CN(C)C2=O
67 | -1.5 | O=C(C1CCC1)N1CC(=O)N2[C@H](CO)[C@H](c3ccc(C#CCc4ccccc4)cc3)[C@@H]2C1
68 | -1.3 | COc1ccc(S(=O)(=O)N(C)C[C@@H]2Oc3c(NS(=O)(=O)c4ccc(C)cc4)cccc3C(=O)N([C@H](C)CO)C[C@H]2C)cc1
69 | 15 | COc1ccc(NC(=O)N2CC[C@@H]3[C@@H](CO)N(C)c4ccc(-c5ccccc5F)cc4[C@@H]32)cc1
70 | -5.2 | CC(C)N1CCCC(C)(C(=O)Nc2nc3ccccc3[nH]2)C1 (centres undefined)
71 | -2.8 | COc1ccc(C#Cc2ccc([C@@H]3[C@H]4CN(C(=O)c5ccncc5)CC(=O)N4[C@H]3CO)cc2)cc1
72 | -0.9 | O=C(NCC[C@@H]1CC[C@@H](NC(=O)C2CCOCC2)[C@H](CO)O1)c1cc(Cl)cc(Cl)c1
73 | -4.7 | C[C@H](CO)N1C[C@H](C)[C@@H](CN(C)S(=O)(=O)c2ccc(F)cc2)Oc2ncc(C#CC3(O)CCCC3)cc2C1=O
74 | -2.9 | C/C=C/c1ccc([C@H]2[C@@H](CN(C)C(=O)CC)N(C(=O)NC(C)C)[C@H]2CO)cc1
75 | 10.0 | O=C(C[C@@H]1CC[C@@H]2[C@H](COC[C@H](O)CN2S(=O)(=O)c2cccc(Cl)c2)O1)NC1CCC1
76 | -6.0 | CCC(=O)N1CCCCN2[C@@H](CO)[C@H](c3ccc(-c4cccnc4)cc3)[C@@H]2C1
77 | -2.5 | CC1=C(C(=O)N2CCCCCC2)CC(CC(=O)NCCCN(C)C)C(=O)N1Cc1ccccc1 (centres undefined)
78 | 8.2 | Cc1ccc(CN2CC(=O)N3[C@@H](CO)[C@H](c4ccc(-c5ccccc5F)cc4)[C@@H]3C2)cc1
79 | -0.4 | C[C@@H]1CN([C@@H](C)CO)S(=O)(=O)c2ccc(-c3cncnc3)cc2O[C@@H]1CN(C)C(=O)CC1CC1
80 | -0.3 | C[C@H]1CN([C@@H](C)CO)C(=O)c2cc(NC(=O)c3ccncc3)ccc2O[C@H]1CN(C)Cc1ccc(C(=O)Nc2ccccc2N)cc1
81 | -0.2 | COc1ccc(C(=O)N2C[C@@H]3[C@H](c4ccccc42)[C@@H](CO)N3Cc2ccccc2)cc1
82 | -0.1 | O=C1N(Cc2ccccc2)Cc2ccccc2[C@@H]2OC(c3ccc(OCCCO)cc3)=N[C@]12CCS(=O)(=O)c1ccccc1
83 | 1.1 | COC(=O)C[C@@H]1CC[C@H]2[C@@H](COc3ccc(NS(=O)(=O)c4ccc(C)cc4)cc3C(=O)N2C)O1

# Some of the compounds tested. The share of hits here may be higher or lower than overall.
